HPGD block = inhibitors of human 15-hydroxyprostaglandin dehydrogenase (HPGD); P15428; purified HPGD, NADH fluorescence kinetic, PGE2 substrate; Potency, µM, inactives show at the top dose activity change, negative = inhibition, actives largely listed as inhibitors; 4.3% of 150,000 active; active = well fitted inhibition curve with a large enough effect (not every such curve was filed as active); inconclusive = small, poorly fitted or top-dose-only effect, or another doubt; inactive = no such curve, though single readings can be large or run the other way;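 further: top concentration of the series not given in the record; plate controls included wells without enzyme; inactives centre near -10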
Target sequence (P15428 whole entry, looked up): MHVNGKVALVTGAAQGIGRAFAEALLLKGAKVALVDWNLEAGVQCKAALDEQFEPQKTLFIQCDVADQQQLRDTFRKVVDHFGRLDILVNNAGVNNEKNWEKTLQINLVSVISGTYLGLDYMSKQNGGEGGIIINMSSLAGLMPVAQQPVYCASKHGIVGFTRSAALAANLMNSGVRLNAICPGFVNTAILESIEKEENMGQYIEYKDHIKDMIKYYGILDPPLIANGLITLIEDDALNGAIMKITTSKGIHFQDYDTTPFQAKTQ
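20 nM HPGD preincubated 15 min at room temperature with compound in 50 mM Tris-HCl pH 8, 0.01% Tween 20. Started with 1 mM NAD+ and 30 uM prostaglandin E2; NADH fluorescence (360/450 nm) read 5 times over 30-s intervals, last minus first.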
Active calls of the source: *; ? = inconclusive. On the % scale 0 is the no-effect control and ±100 the full control effect; potency means the concentration at half of the fitted maximal effect. This is a subset, so the mix of outcomes need not match the whole.

SMILES	HPGD block
O=c1c2cc3c(cc2[nH]c(=S)n1CCN1CCOCC1)OCO3	-8%
CC(=O)C1=C(c2ccccc2)NC(=S)NC1c1cc(Cl)c(OC(C)C)c(Cl)c1 (configuration not stated)	-19%
COc1cccc2sc(Nc3nnc(-c4ccc(F)cc4)o3)nc12	?
CCOC(=O)C1CCN(C(=O)Cn2cc(C(=O)c3ccco3)c3ccccc32)CC1	-5%
Cc1ccc(OCC(=O)N/N=C\c2cn(C)c3ccccc23)c([N+](=O)[O-])c1	-5%
CCn1c(=O)n(Cc2ccco2)c(=N)c2c3c(sc21)COC(C)(C)C3	-1%
CC(C)CNC(=O)CC(NCC(C)C)C(=O)O (configuration not stated)	-7%
CCc1nc2ccccc2c(C(=O)OC2CCOC2=O)c1C (configuration not stated)	-8%
O=C(NCC1CCCO1)c1sc2ccccc2c1Cl (configuration not stated)	8.9µM*
CCc1ccccc1OCC(=O)NC1CCCC1	-11%
O=C(CSc1ccc2c(c1)OCCO2)NCC1CCCO1 (configuration not stated)	16µM*
CS(=O)(=O)NC1CCN(Cc2ccccc2)CC1	4%
O=C1C(Cl)=C(N2CCOCC2)C(=O)N1c1ccccc1	-5%
Cc1occc1C(=O)NNC(=S)Nc1ccccc1	-3%
Cc1cc(C)n(-c2nc(NCCC(C)C)c3c4c(sc3n2)COC(C)(C)C4)n1	-16%
CN(C)S(=O)(=O)c1cccc(NC(=O)CCSc2ccc(Cl)cc2)c1	-11%
Cc1ccc(C(=O)Nc2ccc(O)c(C(=O)O)c2)o1	-14%
O=C(Nc1ccncc1)c1cccc(F)c1	1%
CCCCOc1ccc(S(=O)(=O)NCc2csc(C)n2)cc1	-14%
CCOC(=O)N1CCc2c(sc3nc4n(c(=O)c23)N=C(C)CS4)C1	-20%
CCOC(=O)C1=C(C)OC(N)=C(C#N)C1c1c(C)nn(-c2ccccc2)c1Cl (configuration not stated)	-17%
Cc1ccc(N(C(=O)C2CCCC2)C2C=CS(=O)(=O)C2)cc1 (configuration not stated)	-9%
CCOCCOCN(C#N)c1nc(OC)nc(N(C)C)n1	-8%
COc1ccccc1NC(=O)CN1C(=O)C(C)SC(C)C1=O (configuration not stated)	-3%

The list goes on; the last three above are carried over.
SMILES	HPGD block
Cc1ccc(N(C(=O)C2CCCC2)C2C=CS(=O)(=O)C2)cc1 (configuration not stated)	-9%
CCOCCOCN(C#N)c1nc(OC)nc(N(C)C)n1	-8%
COc1ccccc1NC(=O)CN1C(=O)C(C)SC(C)C1=O (configuration not stated)	-3%
Cc1ccc(CN2C(=O)CSc3ccc(C(=O)NCCN4CCOCC4)cc32)cc1	-1%
Cc1occc1C(=O)N1CCN(c2ccccc2)CC1	-5%
O=C1C=C(NCCc2cc(Br)c(O)c(Br)c2)C(=O)c2ncccc21	-11%
COc1cc2c(cc1NC(=O)CN(C)Cc1nc3ccccc3c(=O)[nH]1)oc1ccccc12	-20%
CC(C)Cc1nc(N2CCCCC2)c(C#N)c2c1CCC2	?
CC(NC(=O)c1ccco1)c1cccc2ccccc12 (configuration not stated)	-8%
Cc1ccsc1C(=O)NNC(=O)C1CC=CCC1C(=O)O (configuration not stated)	-7%
CCOC(=O)c1cc(-c2ccccc2)n(CC(=O)Nc2cc(OC)cc(OC)c2)c1C	-5%
CN(C)CCCN(C(=O)CCc1ccccc1)c1nc2ccc(Cl)cc2s1	-11%
CCN(C(=O)CSc1ncccc1C(=O)OC(C)C)c1cccc(C)c1	-17%
CC(=O)Nc1ccc(C(=O)OCCC(C)C)cc1	-17%
Oc1ccccc1-c1cc(-c2ccccc2)no1	1.6µM*

In the list so far, 3 contain a cyano group.
SMILES	HPGD block
CCOC(=O)C1=C(C)OC(N)=C(C#N)C1c1c(C)nn(-c2ccccc2)c1Cl (configuration not stated)	-17%
CCOCCOCN(C#N)c1nc(OC)nc(N(C)C)n1	-8%
CC(C)Cc1nc(N2CCCCC2)c(C#N)c2c1CCC2	?

Next section.
SMILES	HPGD block
O=C(COC(=O)/C=C/c1ccccc1Cl)NCCc1ccc(Cl)cc1Cl	-29%
CCOC(=O)C1CCN(c2c(NCCN3CCN(c4ccccc4)CC3)c(=O)c2=O)CC1	-14%
CCCCC(O)(CCCC)C(=O)NNc1ccccc1	-5%
CCCCNC(=O)c1ccc2c(c1)N(CC)C(=O)c1ccccc1S2(=O)=O	-3%
OC(c1cccs1)(c1cccs1)C1C[N+]2(CF)CCC1CC2 (configuration not stated)	-5%
CCOc1ccc(C(=O)Nc2ccc(Cl)cn2)cc1Cl	-24%
COC(=O)[C@@H]1C[C@@]2(O)[C@H](O)[C@H](O)[C@H](O)C[C@H]2N1CC(c1ccccc1)c1ccccc1	-5%
CCOC(=O)C(=NC(C)CC)NNc1cccc(C(F)(F)F)c1 (configuration not stated)	-22%
CCC(=O)Nc1cccc(NC(=O)CSc2nnc(-c3ccc(NS(C)(=O)=O)cc3)n2C)c1	-7%
C=CCn1c(N)cc(=O)nc1SCC(=O)Nc1cccc2ccccc12	-4%
COc1ccc(CC(=O)N2CCOCC2)cc1OC	-8%
O=C(CSc1ccccc1)Nc1ccc(N2CCOCC2)cc1	-8%
O=S(=O)(c1ccc(OCC(O)CN2CCN(c3ccccc3O)CC2)cc1)N1CCOCC1 (configuration not stated)	?
CCNCCNC(=O)c1c(O)c2ccccc2n(CC)c1=O	-9%
COc1ccc(CCN2C(=NC(=O)CC(C)C)SC3CS(=O)(=O)CC32)cc1 (configuration not stated)	0%
CCCCc1sc(-c2c(C#N)c(N)nc3c2CCCCC3)cc1[N+](=O)[O-]	-1%
COc1ccc2cc(S(=O)(=O)NCCCN3CCOCC3)ccc2c1	-16%
O=C(NC(NCc1ccccn1)(C(F)(F)F)C(F)(F)F)c1ccco1	-6%
COc1ccc(NC(=O)C2CCCCN2N)cc1OCC(C)C (configuration not stated)	-3%
CCCc1c(O)nc(SCC(=O)NCCc2ccc(OC)c(OC)c2)[nH]c1=O	1%
O=C(O)c1cccc(CN2CCCCC2)c1	-9%
O=C(O)CCC(=O)N1CCN(c2nc(-c3ccccc3Cl)c3cc(Br)ccc3n2)CC1	-24%
Cc1cc(C)nc(SCCC(=O)Nc2cccc3ccccc23)n1	-7%
Cc1cc(C)c(NC(=O)NC2CCCCC2)c(C)c1	-8%
O=C(NCCN1CCN(C(=O)c2cccs2)CC1)C(=O)Nc1ccc(Br)cc1	-1%
Cc1nc2ccccn2c1C(=O)N=Nc1c(O)[nH]c2ccccc12	-19%
CCOC(=O)c1c(C)nc2c3ccccc3ccn12	-13%
C=CCN1C2CCCC1CC(NC(=O)Nc1cccc(C(C)=O)c1)C2 (configuration not stated)	-12%
O=C(/C=C/c1cccc(Cl)c1)NCc1ccncc1	-6%
COc1ccc(C(=O)/C=C/c2ccccc2)cc1	-8%
COc1ccc(C(CNC(=O)c2cccc(N(C)C)c2)N2CCCC2)cc1 (configuration not stated)	-12%
O=C(O)C12CC3CC(C1)CC(n1ncc(N4CCN(c5ccccc5)CC4)c(Cl)c1=O)(C3)C2	-5%
COc1ccc(C2=CC(=O)OC3(CCCCC3)O2)cc1	?
Nc1c(Cl)cc2c(c1Oc1ccccc1)C(=O)c1ccccc1C2=O	-19%
NC(=O)C1CCN(CC(=O)Nc2ccccn2)CC1	-6%
O=C1C2C3CCCC3=C3CCCC3C2C(=O)N1c1ccc(F)cc1 (configuration not stated)	-5%
O=C(CNCCO)NC12CC3CC(CC(C3)C1)C2	-1%
COc1ccc(-c2nc3ccccc3o2)cc1NC(=O)c1ccc(Br)o1	?
CCOc1ccc(C(=O)NCC(=O)OC2CCOC2=O)cc1OCC (configuration not stated)	-16%
O=C(N/N=C/c1ccc(O)cc1)c1ccc(NC(=O)c2ccccc2Br)cc1	14µM*
CCN=C1SC(CC(=O)Nc2ccc(N3CCOCC3)cc2)C(=O)N1CC (configuration not stated)	0%
CCOC(=O)c1ccc(-n2c(C)nc3ccccc3c2=O)cc1	-6%
O=C(COC(=O)CNC(=O)c1ccccc1Cl)Nc1ncc(C(F)(F)F)cc1Cl	-3%
CC(=O)NC1C(Oc2ccccc2C)OC2COC(c3ccco3)OC2C1O (configuration not stated)	-3%
O=C(O)C1CCC(CNCc2ccccc2Cl)CC1 (configuration not stated)	-6%
Cc1ccc(Nc2ncccc2C(N)=O)cc1[N+](=O)[O-]	-20%
CN(C)CC[C@@H](c1ccccc1)c1ccccn1	2%
CC(C)NC(=S)N/N=C/c1sc(N2CCCCC2)nc1-c1cccs1	-9%
COC(=O)c1nc(NC(=O)C(C)C)n[nH]1	-26%
CCOC(=O)c1c(-c2cccc(C)c2)csc1NC(=O)C1CC=CCC1C(=O)O (configuration not stated)	?
COc1cc(C)nc(SCC(N)=O)n1	-17%
O=C(NCc1ccco1)/C(=C/c1ccc(C(F)(F)F)cc1)c1nc2ccccc2[nH]1	?
CCC/C(=N\NC(=O)c1cccc(C)c1)c1ccccc1	-9%
CCN(CC)CCCN1C(=O)C(O)=C(C(=O)c2ccc(C)o2)C1c1ccc(C)o1 (configuration not stated)	-8%
Cc1cc(N2CCOCC2)n2ncc(-c3ccccc3)c2n1	-20%
C=C(C)CSc1nc(N)c(C#N)c(-c2ccc(C)cc2)c1C#N	14µM*
COC(=O)c1ccccc1NC(=O)Cc1nc(-c2ccccc2)sc1-c1ccc(C)cc1	-24%
Cc1cccc(N2CCN(C(=O)n3ccnc3)CC2)c1C	-9%
CC(C)(C)NC(=O)CN(C(=O)c1ccc(CN2CCOCC2)o1)c1ccc2c(c1)OCCO2	-12%
COc1ccc(-n2nnnc2SCc2nc3ccccc3s2)cc1	?

The list continues.
SMILES	HPGD block
C=CCOc1c(CNc2ncn[nH]2)cccc1OC	-4%
CC1CN(C(=S)NC(=O)c2ccco2)CC(C)O1 (configuration not stated)	-2%
O=C(Nc1ccccc1OC(F)F)c1cc2c(s1)CCC2	-17%
CCCC(=O)Nc1sc2c(c1C#N)CCCC2	-15%
O=c1c2cc(-c3ccccc3)sc2ncn1-n1cccc1	-5%
Cc1c(CCO)c(=O)n(C)n1C(=O)c1ccc(F)cc1	0%
CCOC(=O)CC(=O)CSc1nc2c(sc(=S)n2-c2ccc(OCC)cc2)c(=O)[nH]1	-20%
COc1ccc(OC)c(NC(=O)CCN2CCN(c3ccccc3)CC2)c1	-9%
CCOc1cc(/C=C/C(=O)c2ccc(O)cc2)ccc1OCC(=O)N(C)C	-16%
O=C(Cn1c(=O)sc2ccccc21)N1CCOCC1	-4%
O=C1CC(c2ccccc2)Sc2nc(-c3ccccc3)c(-c3ccccc3)n21 (configuration not stated)	-15%
CC(OC(=O)CCc1nc2ccccc2[nH]c1=O)C(=O)c1ccccc1 (configuration not stated)	-23%

Given with the structure last: 5 of the compounds above.
HPGD block,compound
-5%,CCOC(=O)C1CCN(C(=O)Cn2cc(C(=O)c3ccco3)c3ccccc32)CC1
-6%,O=C(O)C1CCC(CNCc2ccccc2Cl)CC1 (configuration not stated)
-4%,C=CCn1c(N)cc(=O)nc1SCC(=O)Nc1cccc2ccccc12
-16%,COc1ccc2cc(S(=O)(=O)NCCCN3CCOCC3)ccc2c1
-7%,Cc1cc(C)nc(SCCC(=O)Nc2cccc3ccccc23)n1

Other structures
SMILES	HPGD block
COC(=O)c1c(NC(=O)COC(=O)CCS(=O)(=O)c2ccc(C)cc2)sc(C)c1C	-16%
CCOc1ccc(S(=O)(=O)n2cc(-c3ccccc3)c(N)n2)cc1	-2%
Cc1ccc(S(=O)(=O)N(Cc2ccccc2)c2ccccc2C(=O)NCc2ccco2)cc1	-18%
CCCCCC1CC(CC(=O)NC(=S)Nc2ccc([N+](=O)[O-])cc2)C(=O)O1 (configuration not stated)	-8%
CC(C)n1c(CNC(=O)c2ccccc2)nc2ccccc21	-15%
Cc1snc(S(=O)(=O)/C(C#N)=N\Nc2ccccc2)c1C#N	-12%
COc1ccc(Cn2c(CCC(=O)Nc3ccc(C)c(C)c3)nc3cccnc32)cc1	-16%
NC(=O)C1CCN(C(=O)CCSc2ccccc2)CC1	2%
CCN(CC)c1ccc(NC(=O)c2cccc(C)c2OC)c(C)c1	-29%
O=C(NCCSc1ccccc1)c1ccccc1	-28%
COc1ccccc1OCC(=O)NC1CCCCCC1	10µM*
CCSc1cc(C)nc2c(-c3ccc(Cl)cc3)c(C)nn12	?
Cc1ccc2c(c1)c1c(n2CC(O)CNC(C)(C)C)CCCC1 (configuration not stated)	-7%
CCCc1cc(=O)[nH]c(SCC(=O)Nc2ccc(OC(F)F)cc2)n1	-20%
CCC(=O)Nc1ccc(/C(C)=N/NC(=O)c2c(Br)c(C)nn2C)cc1	-13%
COc1ccccc1N1CCN(C(=O)c2ccc(CN3CCc4ccccc4C3)cc2)CC1	-6%
Cc1nc(NC(=O)c2ccc(Cl)cc2)sc1Cc1ccc2c(c1)OCO2	?
O=C(Cn1cnc2c(cnn2-c2ccc(Cl)cc2)c1=O)NCC1CCCO1 (configuration not stated)	-8%
Cc1cc(C)c([N+](=O)[O-])cc1-c1ccc(/C=N/c2c(-c3ccco3)nc3ccccn23)o1	?
CC(Oc1ccc(C(=O)NCCc2ccccc2)cc1)C(=O)O (configuration not stated)	-7%
Cc1ccc2c(c1)c1nc3ccccc3nc1n2CCN1CCOCC1	-12%
Cc1ccc(O)c(C(=O)c2cnn(-c3ccccc3)c2)c1	3.5µM*
CNC(=O)c1[nH]cnc1C(=O)Nc1ccc(C)cc1	-10%
CSc1nc(C)c2c(c1C#N)CCCC2	-20%
COCc1cc(Sc2ccc(Cl)cc2Cl)nc(-c2ccccc2)n1	-11%
CCn1cc(C(=O)NCCCOC(C)C)c2cc(OC)c(OC)cc2c1=O	-26%
O=c1oc2c(Cl)cc(Cl)cc2cc1-c1nnc(Nc2ccccc2F)s1	-11%

Bioassay records as filed in PubChem.
